Screening results: PubChem, Broad Institute
Env fusion inh – inhibitors of HIV Env-mediated cell fusion; AID 651610; HeLa-JRFL Env/CEM21 cell fusion, luciferase; inhibition, % at 12.3 µM; 360,000 tested, 1.1% active;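 active = mean replicate inhibition score of at least 50 and every replicate individually at or above 50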;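 also: 0% = plate neutral controls and 100% = maraviroc near 300 nM; one replicate is shown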
UUG fidelity – modulators of start codon recognition fidelity in yeast. 350,000 tested, 0.13% active. S. cerevisiae UUG-firefly luciferase reporter, luminescence/redox ratio. activity score, % at 18.7 µM. AID 602363;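 active = replicate mean at a twofold rise or more, about +100% in these data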;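 also: firefly luciferase made from a UUG start codon reports start codon fidelity; reporter light over untreated wells divided by growth signal over untreated wells; some hits fall short of that in this replicate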
Numbers without * were called inactive; [ ] = another dose, or the depositor's remark.

SMILES | Env fusion inh | UUG fidelity
CCC(=O)N[C@H]1CC[C@@H](CC(=O)NCc2ccc(OC)cc2)O[C@H]1CO | 3[16.7 µM] | -4
C[C@H](CO)N1C[C@H](C)[C@@H](CN(C)S(C)(=O)=O)Oc2ncc(C#Cc3cccnc3)cc2C1=O | -22[16.7 µM] | 7
CCCC#Cc1cnc2c(c1)C(=O)N([C@@H](C)CO)C[C@H](C)[C@H](CN(C)S(=O)(=O)c1ccccc1)O2 | 17[16.7 µM] | 11
O=C(C[C@@H]1C[C@H]2c3cc(NS(=O)(=O)c4ccc(F)cc4)ccc3O[C@H]2[C@@H](CO)O1)NCc1ccccc1 | 21[16.7 µM] | -1
CN(C)C(=O)c1ccc(-c2ccc([C@@H]3[C@H](C#N)N(C(=O)C4CCCC4)[C@H]3CO)cc2)cc1 | 13[16.7 µM] | 37
O=C(Nc1ccccc1F)N[C@H]1CC[C@@H](CCNS(=O)(=O)c2ccc(Cl)cc2)O[C@@H]1CO | -4[16.7 µM] | 1
C[C@@H]1CN([C@@H](C)CO)S(=O)(=O)c2ccc(-c3ccccc3)cc2O[C@H]1CN(C)Cc1ccccn1 | 30[16.7 µM] | 0
C[C@@H]1CN([C@H](C)CO)C(=O)c2cc(NC(=O)c3ccccc3)ccc2O[C@@H](C)CCCCO[C@@H]1CN(C)S(=O)(=O)c1ccc(Cl)cc1 | 18[16.7 µM] | -14
C[C@H](CO)N1C[C@H](C)[C@@H](CN(C)C(=O)CN2CCOCC2)Oc2ncc(C#CCN(C)C)cc2C1=O | -5[16.7 µM] | -15
C[C@H]1CN([C@@H](C)CO)C(=O)Cc2cc(NC(=O)c3ccncc3)ccc2O[C@H]1CN(C)S(=O)(=O)c1cn(C)cn1 | -9[16.7 µM] | -13
Cc1ccc(S(=O)(=O)Nc2ccc3c(c2)C(=O)N([C@H](C)CO)C[C@@H](C)[C@@H](CN(C)S(=O)(=O)c2cn(C)cn2)OCCCC[C@H](C)O3)cc1 | -20[16.7 µM] | 59
Cc1ccc(S(=O)(=O)Nc2ccc3c(c2)C(=O)N([C@@H](C)CO)C[C@@H](C)[C@H](CN(C)S(=O)(=O)c2c(C)noc2C)OCCCC[C@@H](C)O3)cc1 | -21[16.7 µM] | 1
COc1ccc(S(=O)(=O)N(C)C[C@H]2OCCCC[C@@H](C)Oc3ccc(NC(=O)Nc4cccc5ccccc45)cc3C(=O)N([C@@H](C)CO)C[C@H]2C)cc1 | -6[16.7 µM] | -15
O=C(C[C@@H]1C=C[C@@H](NS(=O)(=O)c2cccc(F)c2)[C@H](CO)O1)N1CCCCC1 | 2[16.7 µM] | -8
O=C(C[C@@H]1CC[C@@H](NC(=O)c2ccncc2)[C@H](CO)O1)Nc1ccccc1 | -18[16.7 µM] | -19
C[C@@H]1CN([C@H](C)CO)C(=O)c2cc(-c3cccc(F)c3)cnc2O[C@@H]1CN(C)C(=O)Nc1ccccc1F | 17[16.7 µM] | 18
C[C@@H]1CN([C@H](C)CO)C(=O)Cc2cc(NC(=O)C3CCCCC3)ccc2O[C@H]1CN(C)C(=O)Nc1ccccc1 | 7[16.7 µM] | 6
C[C@H](CO)N1C[C@H](C)[C@H](CN(C)S(=O)(=O)c2ccc(F)cc2)Oc2ccc(NC(=O)Cn3cnnn3)cc2CC1=O | 12[16.7 µM] | -8
O=C(C[C@H]1C[C@@H]2c3cc(NC(=O)Nc4ccccc4)ccc3O[C@@H]2[C@H](CO)O1)NCc1ccccn1 | 0[16.7 µM] | -22
CC(C)NC(=O)N(C)C[C@@H]1Oc2ccc(NC(=O)Cn3cnnn3)cc2C(=O)N([C@H](C)CO)C[C@@H]1C | 15[16.7 µM] | -7
Cc1ccc(S(=O)(=O)N[C@@H]2CC[C@@H](CCNC(=O)C3CCCCC3)O[C@@H]2CO)cc1 | -1[16.7 µM] | -15
O=C(C[C@@H]1CC[C@@H](NC(=O)Nc2ccc(C(F)(F)F)cc2)[C@H](CO)O1)NCc1cccc(F)c1 | -3[16.7 µM] | -6
CN(C)C(=O)C[C@@H]1CC[C@@H](NC(=O)NC2CCCC2)[C@H](CO)O1 | 4[16.7 µM] | 3
C[C@@H]1CN([C@H](C)CO)S(=O)(=O)c2ccc(-c3ccccc3)cc2O[C@@H]1CN(C)C(=O)C1CC1 | 15[16.7 µM] | 1
C[C@H]1CN([C@@H](C)CO)C(=O)Cc2cc(NC(=O)Cn3cnnn3)ccc2O[C@H]1CN(C)S(C)(=O)=O | 6[16.7 µM] | -8
COc1ccc(S(=O)(=O)N(C)C[C@H]2OCCCC[C@@H](C)Oc3ccc(NC(=O)NC(C)C)cc3C(=O)N([C@H](C)CO)C[C@H]2C)cc1 | 16[16.7 µM] | 75
C[C@@H]1CN([C@H](C)CO)C(=O)c2cc(NS(=O)(=O)c3cn(C)cn3)ccc2O[C@@H](C)CCCCO[C@H]1CN(C)C(=O)Nc1ccc(C(F)(F)F)cc1 | -11[16.7 µM] | -10
O=C(Nc1ccc(F)cc1)N[C@@H]1CC[C@@H](CCn2cc(-c3ccccc3F)nn2)O[C@@H]1CO | 16[16.7 µM] | 3
CNC[C@@H]1Oc2ncc(C#CC3(O)CCCC3)cc2C(=O)N([C@H](C)CO)C[C@@H]1C | -16[16.7 µM] | 11
Cc1ccc(S(=O)(=O)Nc2ccc3c(c2)CC(=O)N([C@H](C)CO)C[C@H](C)[C@H](CN(C)C(=O)Nc2ccccc2)O3)cc1 | 2[16.7 µM] | 17
C=CCNC(=O)[C@@H]1[C@H]2C(=O)O[C@H](c3ccccc3)[C@H](c3ccccc3)N2[C@H](c2ccc(O)cc2)[C@@]12C(=O)N(C(=O)OCCOC)c1ccc(C#Cc3ccc(OC)cc3)cc12 | 17[16.7 µM] | -3
COc1ccc(NC(=O)N[C@@H]2C=C[C@@H](CC(=O)NC3CCC3)O[C@@H]2CO)cc1 | 28[16.7 µM] | -2
C[C@H](CO)N1C[C@H](C)[C@H](CN(C)C(=O)Nc2cccc3ccccc23)Oc2ccc(NS(=O)(=O)c3cn(C)cn3)cc2CC1=O | 0[16.7 µM] | -7
C[C@H]1CN([C@@H](C)CO)C(=O)Cc2cc(NS(C)(=O)=O)ccc2O[C@@H]1CN(C)C(=O)NC1CCCCC1 | 5[16.7 µM] | 3
C[C@@H]1CN([C@H](C)CO)C(=O)c2cc(C#Cc3cccc(F)c3)cnc2O[C@@H]1CN(C)Cc1ccccn1 | 9[16.7 µM] | -28
N#C[C@H]1[C@@H](c2ccc(C#CC3(O)CCCC3)cc2)[C@@H](CO)N1C(=O)C1CCCC1 | -1[16.7 µM] | 22
COc1ccc(S(=O)(=O)N(C)C[C@H]2OCCCC[C@@H](C)Oc3ccc(NC(=O)c4ccccc4)cc3C(=O)N([C@H](C)CO)C[C@@H]2C)cc1 | -12[16.7 µM] | -11
C[C@H](O)C#Cc1ccc2c(c1)O[C@@H](CN(C)C(=O)C1CCCCC1)[C@@H](C)CN([C@H](C)CO)S2(=O)=O | -6[16.7 µM] | 6
COc1ccc(S(=O)(=O)N(C)C[C@@H]2OCCCC[C@@H](C)Oc3ccc(NS(=O)(=O)c4ccc(F)cc4)cc3C(=O)N([C@@H](C)CO)C[C@@H]2C)cc1 | -16[16.7 µM] | 17
COc1ccc(NC(=O)Nc2ccc3c(c2)CC(=O)N([C@@H](C)CO)C[C@H](C)[C@@H](CN(C)C(=O)Nc2c(C)noc2C)O3)cc1 | -7[16.7 µM] | -6
C[C@@H]1CN([C@@H](C)CO)C(=O)c2cccc(NC(=O)NC3CCCCC3)c2O[C@H]1CN(C)Cc1ccc(Cl)c(Cl)c1 | -2[16.7 µM] | 9
C/C=C/c1ccc2c(c1)O[C@@H](CN(C)CC1CCCC1)[C@H](C)CN([C@@H](C)CO)S2(=O)=O | -27[16.7 µM] | -6
C[C@H](CO)N1C[C@H](C)[C@H](CN(C)C(=O)Cc2ccccc2)OCCCC[C@H](C)Oc2ccc(NC(=O)c3ccccc3)cc2C1=O | -103[16.7 µM] | 11
C[C@@H]1CN([C@@H](C)CO)C(=O)c2cc(NC(=O)Nc3ccc(F)cc3)ccc2O[C@@H](C)CCCCO[C@H]1CN(C)C(=O)Nc1cccc2ccccc12 | 28[16.7 µM] | 10
C[C@H](CO)N1C[C@H](C)[C@H](CN(C)CC2CC2)Oc2cc(C#Cc3ccccc3)ccc2S1(=O)=O | 13[16.7 µM] | 13
C[C@H](O)C#Cc1ccc2c(c1)O[C@@H](CN(C)C(=O)C1CCC1)[C@H](C)CN([C@@H](C)CO)S2(=O)=O | 12[16.7 µM] | 14
CC(C)CC#Cc1ccc2c(c1)O[C@H](CN(C)C(=O)Cc1ccncc1)[C@@H](C)CN([C@H](C)CO)S2(=O)=O | -12[16.7 µM] | -5
COCC#Cc1cnc2c(c1)C(=O)N([C@H](C)CO)C[C@H](C)[C@@H](CN(C)C(=O)CN1CCOCC1)O2 | 5[16.7 µM] | 2
C[C@H](CO)N1C[C@H](C)[C@H](CN(C)Cc2ccncc2)Oc2ccc(N(C)C)cc2C1=O | -11[16.7 µM] | -5
Cc1noc(C)c1NC(=O)NCC[C@@H]1CC[C@@H](NC(=O)Nc2cccc(Cl)c2)[C@H](CO)O1 | -16[16.7 µM] | 4
C[C@@H]1CN([C@@H](C)CO)C(=O)c2cc(C#CC(C)(C)O)cnc2O[C@@H]1CN(C)Cc1cncnc1 | -18[16.7 µM] | 5
COc1ccc(S(=O)(=O)Nc2ccc3c(c2)CC(=O)N([C@@H](C)CO)C[C@H](C)[C@H](CN(C)Cc2ccccc2)O3)cc1 | 3[16.7 µM] | 1
C[C@@H]1CN([C@@H](C)CO)C(=O)Cc2cc(NC(=O)CCN3CCOCC3)ccc2O[C@H]1CN(C)Cc1ccc(C(=O)Nc2ccccc2N)cc1 | 4[16.7 µM] | 0
C[C@@H](NC(=O)C[C@@H]1CC[C@@H](NC(=O)C2CCOCC2)[C@H](CO)O1)c1ccccc1 | -6[16.7 µM] | -9
C[C@@H]1CN([C@@H](C)CO)C(=O)c2cc(-c3ccccc3)cnc2O[C@H]1CN(C)C(=O)C1CCCCC1 | -6[16.7 µM] | 10
C[C@@H]1CN([C@@H](C)CO)C(=O)c2cc(C#CCc3ccccc3)cnc2O[C@@H]1CN(C)Cc1cccc(C(=O)O)c1 | -6[16.7 µM] | -3
C[C@@H]1CCCCO[C@@H](CN(C)S(=O)(=O)c2ccc(F)cc2)[C@@H](C)CN([C@H](C)CO)C(=O)c2cc(NC(=O)Nc3cccc4ccccc34)ccc2O1 | 2[16.7 µM] | -14
C[C@@H]1CN([C@@H](C)CO)C(=O)c2cc(NS(=O)(=O)c3ccc(F)cc3)ccc2O[C@@H](C)CCCCO[C@H]1CN(C)Cc1ccc(C(=O)O)cc1 | -4[16.7 µM] | 11
C[C@@H]1CN([C@@H](C)CO)S(=O)(=O)c2ccc(C#CC3CC3)cc2O[C@H]1CN(C)Cc1cccnc1 | -4[16.7 µM] | 2
C[C@@H]1CN([C@@H](C)CO)C(=O)c2cc(C3=CCCC3)cnc2O[C@H]1CN(C)C(=O)C1CCC1 | 20[16.7 µM] | -5

An excerpt of these results, with the structure last:
Env fusion inh	UUG fidelity	SMILES
5[16.7 µM]	2	COCC#Cc1cnc2c(c1)C(=O)N([C@H](C)CO)C[C@H](C)[C@@H](CN(C)C(=O)CN1CCOCC1)O2
-11[16.7 µM]	-5	C[C@H](CO)N1C[C@H](C)[C@H](CN(C)Cc2ccncc2)Oc2ccc(N(C)C)cc2C1=O
-16[16.7 µM]	4	Cc1noc(C)c1NC(=O)NCC[C@@H]1CC[C@@H](NC(=O)Nc2cccc(Cl)c2)[C@H](CO)O1
-18[16.7 µM]	5	C[C@@H]1CN([C@@H](C)CO)C(=O)c2cc(C#CC(C)(C)O)cnc2O[C@@H]1CN(C)Cc1cncnc1
3[16.7 µM]	1	COc1ccc(S(=O)(=O)Nc2ccc3c(c2)CC(=O)N([C@@H](C)CO)C[C@H](C)[C@H](CN(C)Cc2ccccc2)O3)cc1
4[16.7 µM]	0	C[C@@H]1CN([C@@H](C)CO)C(=O)Cc2cc(NC(=O)CCN3CCOCC3)ccc2O[C@H]1CN(C)Cc1ccc(C(=O)Nc2ccccc2N)cc1
-6[16.7 µM]	-9	C[C@@H](NC(=O)C[C@@H]1CC[C@@H](NC(=O)C2CCOCC2)[C@H](CO)O1)c1ccccc1
-6[16.7 µM]	10	C[C@@H]1CN([C@@H](C)CO)C(=O)c2cc(-c3ccccc3)cnc2O[C@H]1CN(C)C(=O)C1CCCCC1
-6[16.7 µM]	-3	C[C@@H]1CN([C@@H](C)CO)C(=O)c2cc(C#CCc3ccccc3)cnc2O[C@@H]1CN(C)Cc1cccc(C(=O)O)c1

Later entries.
SMILES | Env fusion inh | UUG fidelity
CCC(=O)N(C)C[C@H]1Oc2ncc(/C=C/c3ccccc3)cc2C(=O)N([C@@H](C)CO)C[C@H]1C | -26[16.7 µM] | 3
C[C@H](CO)N1C[C@H](C)[C@@H](CN(C)S(=O)(=O)c2cn(C)cn2)Oc2ccc(NS(=O)(=O)c3cccs3)cc2CC1=O | -8[16.7 µM] | 0
C/C=C/c1cnc2c(c1)C(=O)N([C@H](C)CO)C[C@H](C)[C@H](CN(C)Cc1ccc(F)cc1)O2 | 26[16.7 µM] | 20
C[C@H](CO)N1C[C@H](C)[C@H](CN(C)C(=O)c2ccccc2)Oc2ncc(-c3ccc(C#N)cc3)cc2C1=O | 0[16.7 µM] | -1

These rows are one share of the data; rates above refer to the full screens.
